Compound activity as filed in PubChem BioAssay.
HPGD inh: qHTS Assay for Inhibitors of HPGD (15-Hydroxyprostaglandin Dehydrogenase); 15-hydroxyprostaglandin dehydrogenase [NAD(+)] (Homo sapiens), P15428; AID 894, 2007; actives 4.3% (n = 150,000); Potency, µM, for inactives: at the top dose activity change, negative = inhibition, usual class: inhibitors; purified HPGD, NADH fluorescence kinetic, PGE2 substrate; active = well fitted inhibition curve with a large enough effect (not every such curve was filed as active); inconclusive = small, poorly fitted or top-dose-only effect, or another doubt; inactive = no such curve, though single readings can be large or run the other way;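 also: top concentration of the series not given in the record; plate controls included wells without enzyme; inactives centre near -10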
Target sequence (P15428 whole entry, looked up): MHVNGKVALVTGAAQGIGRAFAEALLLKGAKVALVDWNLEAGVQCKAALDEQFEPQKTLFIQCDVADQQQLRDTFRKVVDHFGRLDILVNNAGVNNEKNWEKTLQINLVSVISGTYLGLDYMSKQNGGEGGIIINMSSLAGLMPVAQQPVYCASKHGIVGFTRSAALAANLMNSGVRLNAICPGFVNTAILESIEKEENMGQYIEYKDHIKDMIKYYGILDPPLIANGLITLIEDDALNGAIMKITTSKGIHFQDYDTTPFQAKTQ
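20 nM HPGD preincubated 15 min at room temperature with compound in 50 mM Tris-HCl pH 8, 0.01% Tween 20. Started with 1 mM NAD+ and 30 uM prostaglandin E2; NADH fluorescence (360/450 nm) read 5 times over 30-s intervals, last minus first.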
* marks the source's active call; other numbers are inactive results; ? = inconclusive; & = joins results of further samples. % is scaled to controls: 0 for no effect and ±100 for the full control effect; potency is read from the fitted curve at half-maximal effect. An excerpt; rates above refer to the full screens.

The first 7 records, to show the layout:
SMILES	HPGD inh
CC(Oc1ccc(Cl)cc1Cl)C(=O)Nc1ccc(N2CCN(C)CC2)cc1 (configuration not stated)	-17.6%
O=C(NCc1ccco1)c1cc(-c2cccs2)on1	?
O=C(COc1ccc(S(=O)(=O)Nc2ccccc2)cc1)N1CCOCC1	-0.2%
CCCCC1OC23CCCCC2C(C#N)(C(=N)O3)C1(C#N)C#N (configuration not stated)	?
O=C(NCCOc1ccccc1)c1ccccc1	?
CO/N=C(/CS(=O)Cc1ccccc1Cl)c1ccc(Cl)cc1Cl (configuration not stated)	-16.0%
O=C(c1cccs1)N1CCN(C(=O)C2CCCO2)CC1 (configuration not stated)	-8.8%

The listing, repeating the preview:
SMILES	HPGD inh
CC(Oc1ccc(Cl)cc1Cl)C(=O)Nc1ccc(N2CCN(C)CC2)cc1 (configuration not stated)	-17.6%
O=C(NCc1ccco1)c1cc(-c2cccs2)on1	?
O=C(COc1ccc(S(=O)(=O)Nc2ccccc2)cc1)N1CCOCC1	-0.2%
CCCCC1OC23CCCCC2C(C#N)(C(=N)O3)C1(C#N)C#N (configuration not stated)	?
O=C(NCCOc1ccccc1)c1ccccc1	?
CO/N=C(/CS(=O)Cc1ccccc1Cl)c1ccc(Cl)cc1Cl (configuration not stated)	-16.0%
O=C(c1cccs1)N1CCN(C(=O)C2CCCO2)CC1 (configuration not stated)	-8.8%
O=C(c1cccc(Br)c1)c1cn(-c2ccccc2)nc1C(=O)c1ccccc1	-21.8%
Cc1ccc(N(CC(=O)N2CCn3c2nc2ccccc23)S(=O)(=O)c2c(C)n[nH]c2C)cc1	-7.9%
O=C(Cn1cnc2c(nnn2Cc2ccccc2F)c1=O)OCc1ccccc1	-24.5%
CCC(=O)c1ccc(CCCCCC(=O)O)s1	-25.4%
CC(=O)Nc1ccc(N2CCc3c(C)c(C#N)c4nc5ccccc5n4c32)cc1	-9.2%
CC(=O)Nc1ccc(S(=O)(=O)N[C@@H](C)C(=O)OCc2ccc(Cl)cc2)cc1	-16.9%
CCOc1ccc(CCNC(=O)CCc2nc(-c3ccc(C)cc3)no2)cc1OCC	-5.1%
Brc1ccc(C2=CC(c3ccco3)n3ncnc3N2)cc1 (configuration not stated)	-19.2%
O=C(Nc1nc2c(s1)CCCC2=O)c1cnccn1	-14.2%
COc1ccc(-c2cc(C(F)(F)F)n3nc(C(=O)N4CCOCC4)c(Cl)c3n2)cc1	-17.6%
Cc1cc([N+](=O)[O-])nn1CC(=O)N1CCCc2ccccc21	-11.2%
O=c1[nH]c2cccnc2n1Cc1ccccc1	-20.5%
Cc1cc(OCc2cn3cccnc3n2)ccc1Cl	?
COc1ccc(S(=O)(=O)CCC(=O)NC2CCCCC2)cc1	-6.5%
O=C(CN1CCN(Cc2ccccc2)CC1)Nc1ccc(S(=O)(=O)N2CCOCC2)cc1	-2.2%
CN(C)S(=O)(=O)c1ccc(NC(=O)CNc2cc(S(=O)(=O)N3CCCC3)ccc2OCC(F)(F)F)cc1	0.9%
CCOC(=O)C1=C(C)NC2(O)c3ccccc3C(=O)C12O (configuration not stated)	-14.9%
COc1cccc(CNc2ccc3nc(-c4ccc(N)cc4)c(OC)n3n2)c1	-15.6%

Continued.
SMILES	HPGD inh
Cc1cc([N+](=O)[O-])nn1CC(=O)NCc1cccs1	-5.2%
CCC(C)(NC(=O)Cc1c[nH]c2ccccc12)C(=O)NC1CCCCC1 (configuration not stated)	-9.3%
CC1CC(=O)N(CC(=O)Nc2ccc3c(c2)OCCO3)c2ccccc2S1 (configuration not stated)	-7.1%
Cc1ccc(-c2cc(C(=O)N/N=C/C=C/c3ccccc3)n[nH]2)s1	31.6µM*
CN(C(=S)Nc1ccc(Oc2ccccc2)cc1)c1ccc(O)cc1	?
CC(c1nnnn1C1CCCCC1)N(Cc1ccccc1)Cc1cccnc1 (configuration not stated)	-7.7%
CCCc1cc(=O)oc2cc(OCc3nn[nH]n3)ccc12	?
C=CCNC(=O)c1ccc(-c2ccc([N+](=O)[O-])cc2)o1	-29.5%
Cc1ccc(C(=O)N2CCN(C3c4cccc5cccc(c45)C3NS(=O)(=O)c3ccccc3)CC2)cc1 (configuration not stated)	-6.3%
CC(=O)C1C(c2ccc3ncccc3c2)NC(=O)NC1(O)C(F)(F)F (configuration not stated)	-2.9%
CCCOC(=O)c1ccc(NC(=O)/C=C/c2cccs2)cc1	?
Cc1cc(C)c2c(C)nn(-c3ccccc3)c2n1	?
COC(=O)CCC(=O)NC(=S)Nc1sc(C)c(C)c1C(N)=O	-29.5%
O=C1C=C(c2ccccc2)OC2(CCCC2)O1	-15.2%
O=C(Nc1ccc(CN2CCOCC2)cc1)c1cccs1	-0.4%
O=[N+]([O-])c1cc(N(CCO)CCO)ccc1NCCO	-13.0%
CCCCCn1c(=O)[nH]c2cc(C(=O)NCCCN3CCC(C)CC3)ccc2c1=O	-24.6%
CCOc1ccc(NS(=O)(=O)c2cc(Cl)ccc2OC)cc1	-13.2%
CN1CCN(C2=Cc3ccccc3Sc3cc(F)c(F)cc32)CC1	25.1µM*
N=c1n(CCOc2ccccc2)c2ccccc2n1CCN1CCOCC1	-11.4%
COC(=O)c1ccccc1NC(=O)Cc1ccccc1OC	-12.6%
CC(Sc1nc(-c2ccccc2)cc(C(F)(F)F)n1)C(=O)N1CCCC1 (configuration not stated)	-14.4%
CCOC(=O)N1CCN(c2c(NCCCN(C)c3ccccc3)c(=O)c2=O)CC1	-14.6%
Cc1nc2ccc(NC(=O)c3cc(S(=O)(=O)N4CCOCC4)ccc3C)cc2s1	-21.4%
O=C(NCCCN1CCOCC1)C1CCC(=O)N1CCc1ccccc1 (configuration not stated)	-2.7%

Among those listed so far, these have a cyano group:
SMILES	HPGD inh
CCCCC1OC23CCCCC2C(C#N)(C(=N)O3)C1(C#N)C#N (configuration not stated)	?
CC(=O)Nc1ccc(N2CCc3c(C)c(C#N)c4nc5ccccc5n4c32)cc1	-9.2%

Next structures
SMILES	HPGD inh
O=C(NCc1ccccc1Br)c1ccco1	-23.4%
COc1ccccc1C(=O)C1Nc2ccccc2-c2nnc(SC)nc2O1 (configuration not stated)	-15.2%
CN1CCN(CC#CC2(O)CCCCC2)CC1	-3.5%
COc1ccc(S(=O)(=O)N2CCN(C3CCCCCCC3)CC2)cc1	-2.8%
CCOC(=O)Cc1cc(=O)n(-c2nc3ccccc3s2)[nH]1	-10.7%
O=c1cc(N2CCN(c3ccc(F)cc3)CC2)[nH]c(=O)n1C1CCCCC1	-13.1%
Cn1c(=O)c2nc(-c3ccccc3)oc2c2ccccc21	?
CCOC(=O)N1CCN(C(=O)CNCc2cccs2)CC1	5.9%
O=C(Nn1cnnc1)c1ccccc1CCc1ccccc1	-9.0%
CCc1ccc(OCC(=O)N/N=C\c2ccco2)c([N+](=O)[O-])c1	-15.3%
COC(=O)c1cc(Br)c(=O)n(CCc2ccc(O)cc2)c1	-11.8%
C=CCn1c(-c2ccco2)n[nH]c1=S	-24.8%
c1ccc(CN2c3ccccc3-c3nc4ccccc4n3C2c2ccccn2)cc1 (configuration not stated)	?
CCCCCCc1c(O)nc(SCC(=O)O)[nH]c1=O	-9.1%
CCOC(=O)c1cnc2scnn2c1=O	?
CCCc1cc2c(=O)c(-c3ccccn3)c(C)oc2cc1O	?
CCNc1nc(OC)nc(SCC(N)=O)n1	2.0%
Cc1ccc(N=N/C(=C\O)C(=O)c2ccncc2)cc1	-20.8%
CCN1C(=O)/C(=C/c2nc3ccccc3c(=O)[nH]2)c2ccccc21	-11.3%
CCSc1ccc(-c2nn(-c3ccccc3)cc2/C=C(/C#N)C(=O)NC)cc1	?
O=C1Cn2c(nc3ccccc32)N1c1cccc(C(F)(F)F)c1	-6.9%
Cc1ccc(C(=O)COC(=O)c2cc(Cl)nc3ccccc23)cc1C	-24.2%
CCCc1cc(=O)[nH]c(SCC(=O)N(Cc2ccccc2)C(C)C)n1	-6.4%
OCCNc1c2ccccc2nc2c(F)c(F)c(F)c(F)c12	-12.7%
O=C(CN1C(=O)NC2(CCCCCCC2)C1=O)NCc1ccc2c(c1)OCO2	31.6µM*

Later entries.
SMILES	HPGD inh
O=[N+]([O-])c1ccc(Oc2cccc3cccnc23)c([N+](=O)[O-])c1	-4.7%
CCc1nc(OCCN(CC)CC)c2oc3ccccc3c2n1	0.2%
CC1CCCC(C)N1c1nnc(NC(=O)Cn2c(=O)oc3ccccc32)s1 (configuration not stated)	-7.5%
NS(=O)(=O)c1ccc(CCNc2ncnc3sccc23)cc1	-14.9%
O=C(c1ccc(Cl)cc1)N1CCN(c2ccc(F)cc2)CC1	-1.7%
O=C(CNC(=O)c1cccs1)OCC(=O)c1cccs1	-10.9%
CS(=O)(=O)N1CCC2(CCCN(c3cccc(-c4ccccc4)c3)C2)CC1	-11.2%
Cc1ccc(C(=O)Nc2nc(=O)n(C(=O)C3CC3)s2)cc1	-10.3%
O=C(CN1C(=O)CCS(=O)(=O)c2ccccc21)Nc1ccc2c(c1)OCCO2	-9.5%
CSc1nc(Sc2ccccc2Cl)c2ccccc2n1	-14.5%
Cc1cccc(-n2nnnc2SCC(=O)NCCN2C(=O)CSC2=O)c1	-4.1%
CCOC(=O)Nc1nnc(CCc2ccccc2)s1	?
COc1ccc(C)cc1NC(=O)c1nnn(CCc2ccccc2)c1N	?
O=C(CSc1nnc(C2COc3ccccc3O2)o1)NC1CCCCC1 (configuration not stated)	-13.3%
CC(C)Cn1nnnc1S(=O)(=O)CCc1ccccc1	-3.6%
O=C1C[C@@H](c2ccc(O[C@@H]3O[C@H](CO)[C@@H](O)[C@H](O)[C@H]3O)cc2)Oc2cc(O)ccc21	-22.4%
CC1(C(=O)NCCN2CCOCC2)C=CCN1C(=O)c1ccccc1 (configuration not stated)	-5.5%&-9.4%
CCOC(=O)C(NC(=O)c1cccc(Cl)c1)(OCc1ccc(F)cc1)C(F)(F)F (configuration not stated)	-24.1%
CC(C)(C)NCCOCCOc1ccccc1-c1ccccc1	3.5%
Cc1nn(-c2ccc(C(=O)O)cc2)c(=O)c2ccccc12	-12.6%
CCCC(=O)Nc1ccc2c(c1)nc1n2CCOC1	-6.9%
O=C(CN1CCN(c2cccc(Cl)c2)CC1)Nc1ccc([N+](=O)[O-])cc1C(=O)Nc1ccccc1F	-5.7%
O=c1oc2cc(Cl)ccc2n1CSc1nc2ccccc2s1	-29.9%
CC(C)CNS(=O)(=O)c1ccc2c(c1)OCCO2	31.6µM*
CCCOc1nc2c(c(=O)n(C)c(=O)n2C)n1CCC	-10.1%

Going on with the list:
SMILES	HPGD inh
Fc1ccc(C(c2nnnn2Cc2cccs2)N2CCN(c3ccccc3)CC2)cc1 (configuration not stated)	-7.6%
O=S(=O)(c1cc(Cl)ccc1Cl)N1CCCC1	-15.0%
Cc1cccc2c1nc(-c1ccccc1)n1nnnc21	?
COC(=O)CCCC1=CC2=CC(=O)C(C)(OC(=O)c3cccs3)C(=O)C2=CN1Cc1ccco1 (configuration not stated)	-4.5%
COc1ccc2c(c1)c(=O)oc1c(C)c(OCC(=O)N3CCc4ccccc4C3)ccc12	?
COC(=O)c1[nH]c(C)c(/C(O)=C2\C(=O)C(=O)N(CCN3CCOCC3)C2c2ccccc2OC)c1C (configuration not stated)	-2.6%
COc1cc(NCC[C@@H]2CCCCN2)c2ncccc2c1	-13.5%
CCOc1cc(S(=O)(=O)n2c(C)nc3ccccc32)ccc1F	-12.6%
COC(=O)c1cc(NC(=O)CN2CCC(C(N)=O)(N3CCCCC3)CC2)cc(C(=O)OC)c1	-2.7%
CCCOc1ccc(/C=N/Nc2ccccc2[N+](=O)[O-])c(O)c1	-8.4%
CC1(C)Cc2c(sc3c2c(=N)n(Cc2ccco2)c(=O)n3Cc2ccc(F)cc2)CO1	-14.6%
CC(C)NCC(O)COc1ccc2c(c1)CCC2 (configuration not stated)	-4.7%
CCOc1ccc(S(=O)(=O)N(CC(=O)N/N=C/c2ccc(-c3ccc([N+](=O)[O-])cc3)o2)c2ccccc2)cc1	-21.3%
CCN1CCN(c2nc3c(c(=O)[nH]c(=O)n3C)n2CCSc2nc3ccccc3s2)CC1	-7.4%
CCOc1cc(C#N)c(NC(=O)c2ccco2)cc1OCC	-11.3%
O=C(NCc1ccc(Cl)cc1)c1ccc(Cn2cc(C(F)(F)F)ccc2=O)cc1	-29.9%
Cc1ccc(S(=O)(=O)N(C)Cc2cc3ccccc3[nH]c2=O)cc1	-21.9%
Cc1cccc(NC(=O)c2c(F)c(F)c(F)c(F)c2F)c1	-11.0%
O=C(CSc1nc2ccccc2s1)NCCOc1ccccc1	-12.6%
COc1ccc(NC(=O)CSc2nc(C)cs2)cc1OC	-5.8%
O=C(NCc1nnc(SCC(=O)N2CCCc3ccccc32)n1-c1ccccc1)c1cccc2ccccc12	-23.8%
CC1CCN(C(=O)CSc2nncn2-c2ccccn2)CC1	?
COc1cc(Cl)c(CC(=O)c2c[nH]c3ccccc23)cc1OC	-1.4%
O=C(CSc1nc2ccccc2o1)Nc1nc2ccccc2s1	-10.9%
Cc1cc(/C=C2\SC(=Nc3ccccc3)NC2=O)c(C)n1-c1ccc(S(N)(=O)=O)cc1	-18.3%
Cc1ccc(NS(=O)(=O)c2ccc(N/N=C/c3ccncc3)c([N+](=O)[O-])c2)c(C)c1	-10.6%
Cc1ccc(S(=O)(=O)N2CCN(S(=O)(=O)c3ccc(C)cc3)C3OCCOC32)cc1 (configuration not stated)	-10.0%
Oc1c(CN2CCOCC2)cc(-c2ccccc2)cc1CN1CCOCC1	-3.2%
CC(C)(C)n1ncc2c(=O)n(CC(=O)N3CCCCCC3)cnc21	-2.9%
